KCNQ2 enhance – potentiators of rat KCNQ2 potassium channel; 310,000 compounds, 0.54% hits; AID 2239, 2010; CHO-K1 KCNQ2, FluxOR thallium flux fluorescence; active compounds read high; B-score at 10 µM; Potassium voltage-gated channel subfamily KQT member 2 (Rattus norvegicus), O88943;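 active means fluorescence ratio B-score at least 3 SD of library B-scores, with initial fluorescence B-score within 3 SD, cut at about 5.3 in these data; same plate scores as AID 2156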;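 further: B-score of peak minus minimum over baseline fluorescence ratio after K+ and Tl+ stimulus; positive B-score means potentiation of KCNQ2 with more thallium influx and brighter signal; only the inactives scoring about 0 or higher are listed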
Target sequence (O88943 whole entry, looked up): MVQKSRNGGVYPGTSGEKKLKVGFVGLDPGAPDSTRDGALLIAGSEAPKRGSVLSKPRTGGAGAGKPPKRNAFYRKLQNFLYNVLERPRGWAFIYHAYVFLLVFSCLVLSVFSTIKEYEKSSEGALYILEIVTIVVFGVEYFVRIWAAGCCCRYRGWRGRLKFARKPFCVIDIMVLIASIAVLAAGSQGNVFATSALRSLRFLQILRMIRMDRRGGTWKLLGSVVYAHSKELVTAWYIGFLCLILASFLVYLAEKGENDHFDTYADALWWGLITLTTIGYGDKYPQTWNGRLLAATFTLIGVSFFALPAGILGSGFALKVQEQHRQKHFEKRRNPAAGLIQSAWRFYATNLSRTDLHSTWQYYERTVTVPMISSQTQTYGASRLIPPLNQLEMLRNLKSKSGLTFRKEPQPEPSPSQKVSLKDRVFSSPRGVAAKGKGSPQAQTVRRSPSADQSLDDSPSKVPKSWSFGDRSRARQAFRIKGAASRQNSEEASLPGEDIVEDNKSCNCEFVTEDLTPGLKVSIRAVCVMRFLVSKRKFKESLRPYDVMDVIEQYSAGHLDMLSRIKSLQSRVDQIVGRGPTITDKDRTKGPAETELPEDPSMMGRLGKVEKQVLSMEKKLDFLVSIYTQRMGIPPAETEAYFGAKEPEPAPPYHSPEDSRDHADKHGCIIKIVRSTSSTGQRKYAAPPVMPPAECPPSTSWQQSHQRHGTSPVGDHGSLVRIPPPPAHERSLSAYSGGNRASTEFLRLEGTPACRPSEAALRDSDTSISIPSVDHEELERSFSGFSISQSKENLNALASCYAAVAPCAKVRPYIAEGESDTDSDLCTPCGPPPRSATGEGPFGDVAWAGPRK
KCNQ2 enhance baseline – also measured in KCNQ2 enhance; calls as there; B-score; compound at 10 µM; measured here: initial fluorescence intensity artifact check;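 brightness before thallium and not channel activity; 0 = typical well and far values either way flag optical interference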
* = called active by the depositor.

CN=C(Nc1ccccc1)SC1CC(=O)N(c2ccc(C(=O)OC)cc2)C1=O (stereo unspecified) was read as KCNQ2 enhance 0.92 and KCNQ2 enhance baseline 0.09.
`O=C(COc1ccccc1)Nc1ccccc1C(=O)NC1CC1` gave KCNQ2 enhance 0.17 and KCNQ2 enhance baseline 0.03.
CCC(C)(C(=O)NC1CCCCC1)N(Cc1ccco1)C(=O)CC1NC(=O)NC1=O (stereo unspecified) was read as KCNQ2 enhance 0.53 and KCNQ2 enhance baseline 1.4.
For CN1C(=S)NC(C)(C)CC1(C)c1ccc(O)cc1O (stereo unspecified) the results were KCNQ2 enhance 1.2 and KCNQ2 enhance baseline 0.4.
For CS(=O)(=O)NN1C(=O)c2ccccc2NC1c1cc2ccccc2nc1Cl (stereo unspecified) the results were KCNQ2 enhance 0.1 and KCNQ2 enhance baseline -0.03.
`CCC1CCCCN1CCCNC(=O)CNC(=O)Cn1ccc2ccccc2c1=O` (stereo unspecified) gave KCNQ2 enhance 1.8 and KCNQ2 enhance baseline -1.7.
For COc1ccc(C2=Nc3ccc(Br)cc3C(c3ccccc3)N2CC(=O)NN)cc1 (stereo unspecified) the results were KCNQ2 enhance 7.8* and KCNQ2 enhance baseline 1.1*.
`CCOc1cc(C2C(C(=O)N3CCOCC3)=C(C)NC3=C2C(=O)CCC3)ccc1O` (stereo unspecified) gave KCNQ2 enhance 0.02 and KCNQ2 enhance baseline -1.3.
Screening Cc1cc(-c2ccc(S(=O)(=O)N3CCN(c4ccc(F)cc4)CC3)s2)on1 returned KCNQ2 enhance 1.8 and KCNQ2 enhance baseline -1.3.
O=C(O)CC(NC(=O)Cc1ccc(Cl)cc1)c1ccco1 (stereo unspecified) was read as KCNQ2 enhance 0.44 and KCNQ2 enhance baseline -0.14.
`COC(=O)c1ccc(-c2nc3cc(Cl)c(N)cc3s2)cc1` gave KCNQ2 enhance 0.04 and KCNQ2 enhance baseline 1.1.
For Cc1ccc(C(C)NC(=O)C23CC4CC(CC(C4)C2)C3)cc1 (stereo unspecified) the results were KCNQ2 enhance 6* and KCNQ2 enhance baseline 0.49*.
Screening COc1cccc(N2CC(NC(=O)C(=O)c3c(C)[nH]c4ccccc34)CC2=O)c1 (stereo unspecified) returned KCNQ2 enhance 1.1 and KCNQ2 enhance baseline -1.9.
`COc1ccccc1-n1nnnc1SCC(=O)Nc1ccccc1` gave KCNQ2 enhance 0.05 and KCNQ2 enhance baseline -1.4.
`Cc1cc(=O)oc2cc(OCC(=O)OCC(=O)N3CCc4ccccc43)ccc12` gave KCNQ2 enhance 0.47 and KCNQ2 enhance baseline 0.87.

Molecules above that contain a furan ring, fused or not (two):
CCC(C)(C(=O)NC1CCCCC1)N(Cc1ccco1)C(=O)CC1NC(=O)NC1=O (stereo unspecified) was read as KCNQ2 enhance 0.53 and KCNQ2 enhance baseline 1.4.
O=C(O)CC(NC(=O)Cc1ccc(Cl)cc1)c1ccco1 (stereo unspecified) was read as KCNQ2 enhance 0.44 and KCNQ2 enhance baseline -0.14.

Later entries
Screening CC(=O)C1=C(O)C(=O)N(Cc2cccnc2)C1c1ccc(Cl)cc1 (stereo unspecified) returned KCNQ2 enhance 0.3 and KCNQ2 enhance baseline -1.4.
`O=c1c2ccccc2nc2c3ccccc3c(NCCO)nn12` gave KCNQ2 enhance 1.6 and KCNQ2 enhance baseline 0.4.
For CC(NC(=S)Nc1ccc([N+](=O)[O-])cc1)c1ccncc1 (stereo unspecified) the results were KCNQ2 enhance 1.2 and KCNQ2 enhance baseline -0.08.
O=C(c1cccs1)N1CCN(Cc2ccc3c(c2)OCO3)CC1 was read as KCNQ2 enhance 0.66 and KCNQ2 enhance baseline 0.52.
For CC1CCCCC1NC(=O)CCCc1nc2ccccc2c(=O)[nH]1 (stereo unspecified) the results were KCNQ2 enhance 0.05 and KCNQ2 enhance baseline -0.01.
O=C(OCc1cccc([N+](=O)[O-])c1)c1ccc[nH]c1=O was read as KCNQ2 enhance 1.2 and KCNQ2 enhance baseline 0.32.
CCOC(=O)Nc1ccc2c(c1)N(C(=O)CCN1CCN(CCO)CC1)c1ccccc1CC2 was read as KCNQ2 enhance 0.85 and KCNQ2 enhance baseline 0.02.
For COc1ccc2nc(NC(=O)c3ccc(NC(=O)C4CCCO4)cc3)sc2c1 (stereo unspecified) the results were KCNQ2 enhance 0.27 and KCNQ2 enhance baseline -3.3.
COC(=O)c1cc(C(=O)OCC(=O)Nc2ccccc2OC(F)F)cc([N+](=O)[O-])c1 was read as KCNQ2 enhance 0.37 and KCNQ2 enhance baseline -0.01.
Cc1nc2ccccc2c(=O)n1/N=C/c1ccc2ccccc2c1O was read as KCNQ2 enhance 0.09 and KCNQ2 enhance baseline 0.3.
`O=C1N/C(=C/c2cccs2)C(=O)N1Cc1ccc(Br)cc1` gave KCNQ2 enhance 0.1 and KCNQ2 enhance baseline 0.05.
`CCC(NC(=O)CCc1ccccc1)c1ccccc1` (stereo unspecified) gave KCNQ2 enhance 0.26 and KCNQ2 enhance baseline 2.2.
Screening COc1ccccc1N(CC(=O)Nc1cccc(C(F)(F)F)c1)S(C)(=O)=O returned KCNQ2 enhance 1 and KCNQ2 enhance baseline -0.15.
`CCCn1c(Oc2ccccc2)nc2c1c(=O)n(C)c(=O)n2C` gave KCNQ2 enhance 0.82 and KCNQ2 enhance baseline 0.87.
O=C(Cc1ccc(Cl)cc1)N1CCC2(CC1)NCCc1[nH]cnc12 was read as KCNQ2 enhance 0.09 and KCNQ2 enhance baseline -0.02.
COC(=O)C1=C(C)Nc2c(c(=O)n(C)c(=O)n2C)C1c1ccc(C)cc1 (stereo unspecified) was read as KCNQ2 enhance 0.79 and KCNQ2 enhance baseline -1.1.
`NCCCC[C@@H]1NC(=O)c2cc([N+](=O)[O-])cc(I)c2SC[C@@H](C(N)=O)NC(=O)[C@H](CCC(N)=O)NC1=O` gave KCNQ2 enhance 0.03 and KCNQ2 enhance baseline 1.6.
COC(=O)C1=NNC2(C)C(=O)N(c3ccc(C)cc3)C(=O)C12 (stereo unspecified) was read as KCNQ2 enhance 0.45 and KCNQ2 enhance baseline 0.57.
`Cc1ccc(S(=O)(=O)N2CCN(C)CC2)cc1[N+](=O)[O-]` gave KCNQ2 enhance 0.44 and KCNQ2 enhance baseline -0.91.
O=C(O)C(Cc1ccccc1)N1Cc2ccccc2C1=O (stereo unspecified) was read as KCNQ2 enhance 0.54 and KCNQ2 enhance baseline -0.88.
For COC(=O)C1CC(=O)c2sccc2C1 (stereo unspecified) the results were KCNQ2 enhance 0.01 and KCNQ2 enhance baseline -0.64.
CCOC(=O)N1CCN(Cc2nc(C3CC3)no2)CC1 was read as KCNQ2 enhance 0.41 and KCNQ2 enhance baseline -0.41.
CCC(C)NC(=O)CSc1nnc(-c2ccc(OC)c(OC)c2)c(-c2ccc(OC)c(OC)c2)n1 (stereo unspecified) was read as KCNQ2 enhance 1.7 and KCNQ2 enhance baseline 0.59.
Screening COc1cccc(OC)c1C(=O)Nc1ccc2nc(C)c(C)nc2c1 returned KCNQ2 enhance 0.65 and KCNQ2 enhance baseline 0.49.
O=S(=O)(NCCSc1nnnn1-c1ccccc1)c1cccs1 was read as KCNQ2 enhance 0.17 and KCNQ2 enhance baseline -1.4.
Screening CCc1nnc(NC(=O)CSc2nnc(CNc3cccc(C)c3)n2-c2ccccc2)s1 returned KCNQ2 enhance 1.3 and KCNQ2 enhance baseline 0.06.
O=C(CCNC(=O)c1ccc(Cl)cc1)Nc1ccc(Cl)cc1F was read as KCNQ2 enhance 0.59 and KCNQ2 enhance baseline 1.1.
COc1ccc(NC(=O)CSc2nc3nc(-c4cccs4)cc(C(F)(F)F)c3c(=O)[nH]2)c(OC)c1 was read as KCNQ2 enhance 0.2 and KCNQ2 enhance baseline -0.51.
`O=C(Nc1cccnc1)c1cc2c(ccc3ccccc32)o1` gave KCNQ2 enhance 0.88 and KCNQ2 enhance baseline 0.17.
For COc1ccc(CN(C)C(=O)c2ccc(NC(=O)CC3SC(N4CCCC4)=NC3=O)cc2)c(OC)c1OC (stereo unspecified) the results were KCNQ2 enhance 0.88 and KCNQ2 enhance baseline -0.88.

Reprinted at random: six entries already listed.
For COC(=O)C1CC(=O)c2sccc2C1 (stereo unspecified) the results were KCNQ2 enhance 0.01 and KCNQ2 enhance baseline -0.64.
COC(=O)c1cc(C(=O)OCC(=O)Nc2ccccc2OC(F)F)cc([N+](=O)[O-])c1 was read as KCNQ2 enhance 0.37 and KCNQ2 enhance baseline -0.01.
`CCC1CCCCN1CCCNC(=O)CNC(=O)Cn1ccc2ccccc2c1=O` (stereo unspecified) gave KCNQ2 enhance 1.8 and KCNQ2 enhance baseline -1.7.
`Cc1cc(=O)oc2cc(OCC(=O)OCC(=O)N3CCc4ccccc43)ccc12` gave KCNQ2 enhance 0.47 and KCNQ2 enhance baseline 0.87.
For CN1C(=S)NC(C)(C)CC1(C)c1ccc(O)cc1O (stereo unspecified) the results were KCNQ2 enhance 1.2 and KCNQ2 enhance baseline 0.4.
O=C(O)C(Cc1ccccc1)N1Cc2ccccc2C1=O (stereo unspecified) was read as KCNQ2 enhance 0.54 and KCNQ2 enhance baseline -0.88.

More records
Screening COc1ccc2c(c1)cc1n2CCN2CCCN=C12 returned KCNQ2 enhance 0.04 and KCNQ2 enhance baseline -0.01.
Screening Cc1nc2ccccn2c1C(=O)NNC(=S)Nc1ccc(Cl)cc1 returned KCNQ2 enhance 0.23 and KCNQ2 enhance baseline 1.2.
For COc1ccc2sc3c(=O)[nH]c4ccccc4c3c2c1 the results were KCNQ2 enhance 0.79 and KCNQ2 enhance baseline 1.5.
For O=C(NC(=S)Nc1ccccc1)c1cc(-c2ccccc2)nc2ccccc12 the results were KCNQ2 enhance 17* and KCNQ2 enhance baseline -0.46*.
Screening Cc1ccnc(NS(=O)(=O)c2ccc(NC(=O)c3ccc([N+](=O)[O-])s3)cc2)n1 returned KCNQ2 enhance 0.15 and KCNQ2 enhance baseline -1.8.
For COc1cccc(N=Cc2ccc(O)cc2O)c1 the results were KCNQ2 enhance 0.21 and KCNQ2 enhance baseline 2.
Screening Cc1cc(OCC(O)CN2CCCC2)ccc1C(C)C (stereo unspecified) returned KCNQ2 enhance 2.3 and KCNQ2 enhance baseline 2.1.
`COc1ccc(C(=O)N2CCNC(=O)C2CC(=O)Nc2cc(Cl)ccc2OC)cc1` (stereo unspecified) gave KCNQ2 enhance 0.01 and KCNQ2 enhance baseline 1.
`COc1ccccc1CCC(=O)OCC(=O)Nc1cc(S(=O)(=O)N2CCOCC2)ccc1C` gave KCNQ2 enhance 0.6 and KCNQ2 enhance baseline 0.04.
For COc1ccccc1CNC(=O)C1CCN(S(=O)(=O)c2ccc3c(c2)OCCCO3)CC1 the results were KCNQ2 enhance 1.2 and KCNQ2 enhance baseline 0.22.
For Cc1ccc(/C(O)=C2/C(=O)C(=O)N(c3ccccn3)C2c2ccc([N+](=O)[O-])cc2)cc1 (stereo unspecified) the results were KCNQ2 enhance 0.14 and KCNQ2 enhance baseline 1.1.
Cc1[nH]c(=O)[nH]c(=O)c1NC(=O)c1ccc(OC(C)C)cc1 was read as KCNQ2 enhance 0.66 and KCNQ2 enhance baseline -0.93.
Screening CC(=O)Nc1ccc(Nc2ncnc3ccccc23)cc1 returned KCNQ2 enhance 0.97 and KCNQ2 enhance baseline -0.96.
For N#CNC(N)=Nc1cccc(Cl)c1 the results were KCNQ2 enhance 1.4 and KCNQ2 enhance baseline -2.1.
Screening CCc1cc2c(Nc3ccccc3O)nc(C)nc2s1 returned KCNQ2 enhance 0.92 and KCNQ2 enhance baseline -0.46.
`COc1ccc(/C=C/c2ccc3cccc(O)c3n2)cc1Br` gave KCNQ2 enhance 0.55 and KCNQ2 enhance baseline 0.79.
Screening CC(=O)Oc1c(S(=O)(=O)c2ccc(C)cc2)c(C)nn1C(C)(C)C returned KCNQ2 enhance 0.34 and KCNQ2 enhance baseline 0.04.
Screening O=C(Cc1c(F)cccc1Cl)Nc1cc(S(=O)(=O)N2CCCCC2)ccc1N1CCOCC1 returned KCNQ2 enhance 0.37 and KCNQ2 enhance baseline -2.
`Cc1cccc(OCCCC(=O)NC2CCCCC2)c1` gave KCNQ2 enhance 0.16 and KCNQ2 enhance baseline 1.1.
CC1=C(C(=O)OC2CCCCC2)C(c2cccnc2)n2nnnc2N1 (stereo unspecified) was read as KCNQ2 enhance 1.6 and KCNQ2 enhance baseline 0.22.
O=C(COc1ccc2ccc(=O)oc2c1)Nc1ccc(CCO)cc1 was read as KCNQ2 enhance 1.2 and KCNQ2 enhance baseline 0.05.
For CN(CC(=O)Nc1ccccc1C(F)(F)F)C(=O)Cc1ccc(S(=O)(=O)N2CCOCC2)s1 the results were KCNQ2 enhance 0.48 and KCNQ2 enhance baseline 0.28.
Screening O=C(NCc1ccncc1)C1CCN(S(=O)(=O)Cc2ccccc2)CC1 returned KCNQ2 enhance 0.72 and KCNQ2 enhance baseline -0.34.
Screening O=C(C[n+]1cccc2ccccc21)c1ccc(Br)cc1 returned KCNQ2 enhance 0.78 and KCNQ2 enhance baseline 0.03.
For CCc1ccc(NC(=O)CCC(=O)Nc2nnc(C(F)(F)F)s2)cc1 the results were KCNQ2 enhance 4 and KCNQ2 enhance baseline -2.6.
Screening COc1ccc(C(=O)C2C(c3ccc(-c4ccccc4[N+](=O)[O-])o3)NC(=O)NC2(O)C(F)(F)F)cc1 (stereo unspecified) returned KCNQ2 enhance 0.67 and KCNQ2 enhance baseline -0.85.
Screening O=C(NCCc1c[nH]c2ccccc12)C(=O)NCC1OCCN1S(=O)(=O)c1ccc(F)cc1 (stereo unspecified) returned KCNQ2 enhance 0.75 and KCNQ2 enhance baseline -1.6.

An excerpt; count on the stated rates, not on these rows.
